Calb biofilm kill: mixture kills Candida albicans biofilm cells | C. albicans biofilm persisters + clotrimazole, fluorescence viability; primary screen in compound mixtures of four per well | inhibition, % at 7.6 µM | hit rate 0.02% among 120,000;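 active = inhibition above 30.3% in the primary screen of four-compound pools, then above 30% when the compound was retested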;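 also: compounds exposed to preformed 24 h biofilms for 48 h; the number belongs to the whole pool; some results filed as inactive read as strong as hits; inactives centre near 12; 0% = biofilm with clotrimazole alone and 100% = kill control; retested singly at about 60 µM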
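Assay system: C. albicans biofilms / Medium: RPMI/MOPS medium, pH 7.0 / Schedule: biofilm formation 24 h, compound exposure 48 h, 37 °C / Measured by: Alamar Blue fluorescence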
Active calls of the source: *. These rows are one share of the data. The share of hits here may be higher or lower than overall.

SMILES	Calb biofilm kill
CCS(=O)(=O)c1ccc2oc(SCC(=O)N3CCCCC3)nc2c1	12.5
CCOC(=O)C1CCN(C(=S)Nc2ccc(S(N)(=O)=O)cc2)CC1	18.7
CCOc1ccc(/C=C(\C#N)C(=O)Nc2cccnc2)cc1	17.1
CCOC(=O)c1c(NC(=O)Cn2nc(C(=O)O)c3ccccc3c2=O)sc2c1CCC(C)C2 (stereo unspecified)	11.2
Cc1ccc(CNC(=O)CCNS(=O)(=O)c2ccc(Br)s2)cc1	21.9
COc1cc2c(cc1OC)C(c1cccs1)N(C(=S)NC(C)C)CC2 (stereo unspecified)	14.6
COC(=O)c1ccccc1NS(=O)(=O)c1ccc2[nH]c(=O)[nH]c2c1	12.2
O=C(NCC(c1cccs1)N1CCOCC1)c1ccc([N+](=O)[O-])cc1 (stereo unspecified)	4.6
COc1ccccc1/C=C/C=N/n1c(C2CCCCC2)n[nH]c1=S	11.3
O=[N+]([O-])c1cnccc1Nc1cccc(F)c1	11.9
COc1ccc(-c2cccc(C3CC=CC4C3C(=O)N(Cc3ccccc3)C4c3ccc(OC)c(Cl)c3)c2)cc1 (stereo unspecified)	24.4
O=C(CSc1nc2ccccc2c(=O)n1CCCN1CCOCC1)c1c[nH]c2ccccc12	10.5
NC(=O)c1cc2c(s1)-c1cc(Cl)ccc1SC2	4.7
Cc1ccc(NC(=O)CCCSc2ccccc2)cc1S(=O)(=O)N1CCOCC1	0.8
CC(C)Cc1nnc(NC(=O)Cc2ccccc2[N+](=O)[O-])s1	10.8
CCCCn1c(SCC(=O)N2CCc3ccccc32)nnc1-c1ccncc1	18.7
O=C(CCN1C(=O)c2ccc([N+](=O)[O-])cc2C1=O)Nc1nccs1	6.2
Cc1ccc(S(=O)(=O)NNC(=O)Cc2cccn2C)cc1	5.5
COc1ccc(/C=N/NC(=O)Cn2cnc3c2c(=O)n(C)c(=O)n3C)c(OC)c1OC	26.6
Cc1cc(OCC(=O)N(C(C)C)C(C)C)ccc1Cl	-0.9
CC(C(=O)NC1CCCC1)N1CCN(Cc2ccccc2)CC1 (stereo unspecified)	4.8
CN1CCN(c2ccccc2NC(=O)c2cc3c(s2)-c2ccccc2OC3)CC1	20.7
Cc1c(NC(=O)C(C)OC(=O)c2cccc([N+](=O)[O-])c2)c(=O)n(-c2ccccc2)n1C (stereo unspecified)	19.5
O=C(CCC(=O)Nc1ccc(F)cc1)N/N=C/c1ccccc1O	12.6
O=[N+]([O-])c1cc(Cl)ccc1N1CCN(c2cccc(C(F)(F)F)c2)CC1	18.9
CN(C)S(=O)(=O)c1ccc(NC(=O)COc2ncnc3c2cnn3-c2ccccc2)cc1	-10.0
CCN(Cc1ccccc1)S(=O)(=O)c1ccc(C(=O)N2CCN(c3nc4ccccc4s3)CC2)cc1	12.7
CCCN1C(=O)/C(=C/c2ccncc2)SC1=S	12.0
Fc1cc(F)c2nc(Nc3nc4cc5c(cc4s3)OCO5)sc2c1	5.5
CCCC(=O)Nc1cccc(-c2cn3cccnc3n2)c1	9.7
COc1cc(C(=O)N(CCc2ccccc2)C2=CC3CCC(C2)N3C)cc(OC)c1OC (stereo unspecified)	10.8
Nc1ccc(N2CCCCC2)c2nonc12	10.4
Cc1ccc(NC(=O)c2cn(CCC#N)nc2-c2cccs2)c([N+](=O)[O-])c1	23.8
Cc1oc2c(C)c(O)ccc2c(=O)c1-c1nncn1-c1ccccc1	12.4
COC(=O)c1ccc(-n2cc(-c3ccc(OC)cc3)[nH]c2=S)cc1	8.7
C/C(=N\NC(=O)c1cc(-c2ccco2)nc2ccccc12)c1cccnc1	13.5
CCn1c(C)nc2cc(C(=O)N/N=C/c3ccccc3C)ccc21	9.2
O=c1[nH]c2ccccc2nc1/C=C/c1ccc(F)cc1	10.6
COc1cc(SC)ccc1C(=O)Nc1ccncc1	9.0
Cc1ccc(C)c(OCc2ccc(C(=O)NN)o2)c1	10.3
O=C(Cn1ccc([N+](=O)[O-])n1)NCCc1c[nH]c2ccccc12	4.2
CCC(=O)Nc1ccc(C(=O)NNC(=O)c2cc(OC)c(OC)c(OC)c2)cc1	27.5
CCc1c(C(=O)NNC(=S)NCc2ccccc2)csc1C	7.4
Cc1csc(SCC(=O)NCCc2ccc(Cl)cc2)n1	7.4
O=C(Nc1ncc(Cc2ccccc2Cl)s1)c1ccc([N+](=O)[O-])cc1	-2.2
CN(CC(=O)NCCc1ccccn1)S(=O)(=O)c1ccc(Cl)cc1	3.2
Cc1cc(C)c2c(N)c(C(=O)NC3CCCC3)sc2n1	5.5
CCNc1nc(NC(C)C)nc(SCCOC(=O)c2ccccc2)n1	11.8

Four of the compounds above, field by field:
CCn1c(C)nc2cc(C(=O)N/N=C/c3ccccc3C)ccc21
  Calb biofilm kill: 9.2

O=C(Nc1ncc(Cc2ccccc2Cl)s1)c1ccc([N+](=O)[O-])cc1
  Calb biofilm kill: -2.2

O=C(Cn1ccc([N+](=O)[O-])n1)NCCc1c[nH]c2ccccc12
  Calb biofilm kill: 4.2

CCNc1nc(NC(C)C)nc(SCCOC(=O)c2ccccc2)n1
  Calb biofilm kill: 11.8

New compounds follow
SMILES	Calb biofilm kill
COc1cc(/C=N/NC(=O)Cc2csc(N3CCOCC3)n2)cc(OC)c1O	11.7
O=C(CCOc1ccccc1)Nc1ccc([N+](=O)[O-])cc1	12.3
CC(C)CCNc1nc(N)c([N+](=O)[O-])c(NCCO)n1	9.8
O=C(Nn1c(C2CCCCC2)nc2ccccc2c1=O)c1ccc([N+](=O)[O-])cc1Cl	3.7
O=C(NN1C(=O)C2C3C=CC(C4CC34)C2C1=O)c1cccc(Cl)c1 (stereo unspecified)	10.4
O=C1C(=Cc2ccco2)C(=O)c2ccccc21	18.5
O=C(Nc1ccc(C(=O)O)cc1)/C(=C\c1ccc([N+](=O)[O-])cc1)NC(=O)c1ccc(Br)cc1	8.6
CC(C)Oc1ccc(C(CC(=O)N(C)CCC#N)c2ccc(F)cc2)cc1 (stereo unspecified)	3.6
O=c1c2ccccc2n2c(-c3cccc(F)c3)nnc2n1Cc1ccccc1	6.5
CCOC(=O)c1cccc(-n2c(-c3ccc(OC)cc3)nc3nc4ccccc4nc32)c1	2.4
CCOC(=O)c1c(-n2cccc2)sc2c1CCCC2=O	16.2
Cn1cnnc1SCC(=O)NNC(=O)COc1ccc(Cl)cc1	1.6
Cc1cc(C)c(C#N)c(SCc2[nH]nc3c2C(c2ccc(F)cc2)C(C#N)=C(N)O3)n1 (stereo unspecified)	13.6
CCCCCC1CC(CC(=O)Nc2ccc([N+](=O)[O-])cc2)C(=O)O1 (stereo unspecified)	9.1
Cc1c(/C=N\NC(=O)C2COc3ccc(C(C)(C)C)cc3O2)c2ccccc2n1C (stereo unspecified)	11.8
S=C(Nc1ccccn1)c1ccccn1	18.0
O=C(NNc1nc2cc3c(cc2s1)OCCO3)c1ccc(F)cc1	10.8
CC12CCC(C(=O)N(c3ccccc3Cl)C1=O)C2(C)C (stereo unspecified)	11.7
Cc1cccc(NC(=O)Cn2c(/C=C/c3ccccc3)nc3ccccc32)c1	11.3
COc1ccc(NCC(=O)N/N=C2\CCCC(C)C2)cc1 (stereo unspecified)	16.4
O=C(OCC(=O)N1CCOCC1)c1cccc(S(=O)(=O)N2CCCc3ccccc32)c1	7.5
CC(=O)Nc1ncnc2c1c(-c1ccc(Cl)cc1)nn2C(C)(C)C	0.3
O=C(C1=C[C@H](c2coc3ccccc3c2=O)C[C@H](OCc2ccc(CO)cc2)O1)N1CCN(Cc2ccc3c(c2)OCO3)CC1	11.5
CCCS(=O)(=O)N1CCN(Cc2c[nH]c3ccccc23)CC1	9.7

Single values from the list:
CC(=O)Nc1ncnc2c1c(-c1ccc(Cl)cc1)nn2C(C)(C)C in Calb biofilm kill → 0.3
CCCS(=O)(=O)N1CCN(Cc2c[nH]c3ccccc23)CC1 in Calb biofilm kill → 9.7
Cc1cccc(NC(=O)Cn2c(/C=C/c3ccccc3)nc3ccccc32)c1 in Calb biofilm kill → 11.3

3 records picked at random from the list so far:
SMILES	Calb biofilm kill
CCCCCC1CC(CC(=O)Nc2ccc([N+](=O)[O-])cc2)C(=O)O1 (stereo unspecified)	9.1
S=C(Nc1ccccn1)c1ccccn1	18.0
O=C(OCC(=O)N1CCOCC1)c1cccc(S(=O)(=O)N2CCCc3ccccc32)c1	7.5

Next section
SMILES	Calb biofilm kill
COC(=O)c1ccc2c(=O)n(Cc3ccc(C(=O)NCCCN4CCC(C)CC4)cc3)c(=S)[nH]c2c1	18.1
Cc1ccc(Cn2ncc3c(N4CCN(CCc5ccccc5)CC4)ncnc32)cc1	19.0
CC(C)CC(=O)NC(Nc1ccc([N+](=O)[O-])cc1)C(Cl)(Cl)Cl (stereo unspecified)	-4.5
COCC(C)NCC(=O)NC(C)CCc1ccccc1 (stereo unspecified)	20.5
COC(=O)C1=C(C(=O)OC)[C@@H]2N(C)c3ccc(OC)cc3[C@@]23C[C@@H](C(=O)OC)N=C3N1	14.3
C=CCC(C)(NCc1ccccc1)c1ccc(C)cc1 (stereo unspecified)	14.0
CC(NC(=O)Cc1ccccc1)C(c1ccccc1)N1CCOCC1 (stereo unspecified)	10.5
Cc1cc(/C=C2\C(=N)N3N=C(CC(=O)N4CCOCC4)SC3=NC2=O)c(C)n1Cc1ccccc1	24.2
CCN(CC(=O)Nc1ccccc1OC)CC(=O)Nc1c(Cl)ccc(C)c1Cl	3.9
Cc1[nH]c2ccccc2c1/C=N/NC(=O)c1cccc(S(=O)(=O)Nc2cccc(C(F)(F)F)c2)c1	9.8
COc1ccc(Br)cc1/C=N/N1CCN(Cc2ccccc2)CC1	32.5
O=C(NCc1ccc(F)cc1)C(C(=O)NCc1ccc(F)cc1)c1ncc(C(F)(F)F)cc1Cl	6.9
O=c1c(N2CCOCC2)c(N2CCOCC2)c1=O	6.0
CCCc1cc(C(=O)OC)c(NC(=O)c2cc(C)on2)s1	12.8
O=C(NNc1cccc(Cl)n1)c1cccnc1Cl	4.7
COCCn1c(-c2ccc(Br)cc2)csc1=Nc1cccnc1	-8.8
COC(=O)C1=C(NC(=O)c2ccccc2[N+](=O)[O-])CCS1	7.3
COc1ccc(-n2cc(-c3ccc(OC)c(OC)c3)[nH]c2=S)cc1	-3.7
COCCNC(=O)c1cc2nc3c(c(C(F)(F)F)n2n1)CCc1ccccc1-3	-4.6
C/C=C/c1ccc(OCc2cc(=O)n3cc(C)ccc3n2)c(OC)c1	14.2
O=C1OCC2=C1C(c1ccc(F)cc1)CC(=O)N2c1ccccc1 (stereo unspecified)	14.5
Cc1ccc(-c2nc(-c3cccnc3)sc2CC(=O)Nc2ccc3nc(C)sc3c2)cc1	8.6
Cc1nc(CSc2n[nH]c(=O)n2-c2cccc(F)c2)cs1	4.6
C=CCOC(=O)C1=C[C@@H](c2ccc(C(F)(F)F)cc2)[C@H](CCCO)[C@@H](OCC)O1	23.9
N=c1scc(-c2ccccc2)n1/N=C/c1ccco1	15.3
CCOC(=O)Cc1csc(NC(=O)c2ccc(NC(C)=O)cc2)n1	-3.0
O=C1CS/C(=N/N=C/c2ccccc2OS(=O)(=O)c2ccccc2)N1	3.0
O=C(CN1C(=O)NC2(CCCC2)C1=O)NCC1CCCO1 (stereo unspecified)	13.0
CN1CCC(CNC(=O)Nc2csc3ccccc23)CC1	4.3
O=C(Nc1nccs1)c1ccc(Br)c(S(=O)(=O)N2CCOCC2)c1	14.1
COCC(=O)Nc1ccc(Br)cc1C	0.0
Cc1cc(Cl)ccc1OCC(=O)N/N=C/c1ccc(OC2OC(CO)C(O)C(O)C2O)cc1 (stereo unspecified)	3.5
COc1cccc(N2C(=O)/C(=C\c3cccs3)NC2=S)c1	8.7
CCC(c1nnc(SCC(=O)Nc2ccc(Cl)cc2C(F)(F)F)n1C1CCCCC1)N(C)C (stereo unspecified)	10.6
CC(=C/c1ccco1)/C=N/NC(=O)c1ccncc1	28.9
CC(Cc1ccsc1)NC(=O)CCc1nnc(CCc2ccccc2)o1 (stereo unspecified)	12.2
Cc1ccc(Nc2nnc(SCC(=O)Nc3cccc(S(=O)(=O)NC4=NCCCCC4)c3)s2)c(C)c1	9.8
COc1ccc(NC(=O)c2ccc3c(c2)NC(=O)CO3)cc1OC	-3.0
Cc1ccc(C(=O)c2cc([N+](=O)[O-])ccc2N2CCCCC2)cc1	12.2
O=C(Nc1ccccc1N1CCCC1)c1cccc(Cl)c1Cl	1.9
O=C(COC(=O)C1CCN(S(=O)(=O)c2cccs2)CC1)NCc1ccccc1	5.0
O=C(O)CC(c1cccc2ccccc12)N1Cc2ccccc2C1=O (stereo unspecified)	10.8
CC(=O)Nc1ccc(S(=O)(=O)NCc2cccnc2)cc1	11.6
Cc1ccc(C(=O)OC2OC(=O)C(Cl)=C2N2CCOCC2)cc1 (stereo unspecified)	16.2
O=C1C2C3c4ccccc4C(c4ccccc43)C2C(=O)N1c1ccncc1 (stereo unspecified)	29.3
O=C(CSc1nc2ccccc2s1)N/N=C/c1ccccc1C(=O)O	10.8
Cc1ccc2c(c1)Oc1ccc(NC(=O)CCCl)cc1C(=O)N2	21.9
COc1ccc(CCNC(=O)C(=O)NCC2OCCN2S(=O)(=O)c2ccc(Br)cc2)cc1OC (stereo unspecified)	9.6
CN(CCOC(=O)c1ccc2c(c1)OCCO2)C(C)(C)C	18.7
CC(Oc1cccc(Cl)c1)C(=O)NCCCCc1ccccc1 (stereo unspecified)	15.2
Cc1cc(C(=O)OCC(=O)NC(=O)c2cccn2C)c2ccccc2n1	9.7
O=C(C1CCCN(Cc2ccccc2F)C1)N1CCc2ccccc2C1 (stereo unspecified)	0.9
NS(=O)(=O)c1ccc(N=Cc2c(O)n(-c3nccs3)c(=O)c3ccccc23)cc1	12.5
C[C@H](NC(=O)c1nc[nH]c1C(=O)NCCCCCNC(=O)OC(C)(C)C)C(=O)OCc1ccccc1	21.6
CN(C(=O)COC(=O)/C=C/c1ccc2ccccc2n1)C1CCS(=O)(=O)C1 (stereo unspecified)	20.1
CCc1nnc(NC(=O)CSc2nnc(-c3ccncc3)n2C)s1	10.3
